Cruzain noTriton = cruzain (T. cruzi) inhibition without detergent; purified cruzain, Z-FR-AMC fluorescence, no detergent; Potency, µM, without a hit: max response, negative = inhibition, usual class: inhibitors; 200,000 compounds, 2.3% hits; active = well fitted curve in the direction sought with a large enough effect; inconclusive = small, poorly fitted or top-dose-only effect, or another doubt; inactive = no such curve, though single readings can be large; an effect the other way counts as inactive or inconclusive;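 note: plate controls were enzyme without inhibitor for no effect and buffer without enzyme for full effect; nearly all actives have a fitted effect of over 40% in size; top concentration of the series not given in the record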
Target sequence (P25779 123-467 limits assumed): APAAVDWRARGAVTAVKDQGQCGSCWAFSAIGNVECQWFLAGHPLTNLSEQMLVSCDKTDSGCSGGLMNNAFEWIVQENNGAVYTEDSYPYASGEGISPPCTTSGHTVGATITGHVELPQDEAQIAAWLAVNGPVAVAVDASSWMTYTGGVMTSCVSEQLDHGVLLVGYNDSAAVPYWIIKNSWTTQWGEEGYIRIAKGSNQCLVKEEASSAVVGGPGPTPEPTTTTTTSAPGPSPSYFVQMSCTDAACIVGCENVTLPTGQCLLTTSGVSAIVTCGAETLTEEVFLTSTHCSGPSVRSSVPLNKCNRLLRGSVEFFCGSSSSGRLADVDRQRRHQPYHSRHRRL
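Detergent-free condition (0.00005% Triton X-100) in acetate buffer pH 5.5 with DTT. 1.5 nM enzyme and compound were pre-mixed 15 min, then 2 uM Z-FR-AMC substrate added; reaction progress from fluorescence change between first and third reads (60 s).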
2A StopGo = FMDV 2A StopGo reporter, luciferase signal; human cells with a luciferase reporter of 2A StopGo recoding; control for the full effect not named in the record; Potency, µM (top dose mostly 57.9 µM), without a hit: top-dose signal change, negative = less light; AID 1159524; 410,000 compounds, 1.2% hits; active = well fitted falling curve with a large enough effect; inconclusive = small, poorly fitted or top-dose-only effect; inactive = no such curve, though single readings can be large or run the other way; tested in HEK293T cells; note: % is set by controls: 0 for no effect and ±100 for the full control effect; nearly all actives have a fitted effect of over 45% in size; luciferase light after 4 h
Cruzain Triton = cruzain (T. cruzi) inhibition with detergent; P25779; purified cruzain, Z-FR-AMC fluorescence, 0.01% Triton; Potency, µM, for inactives: max response, negative = inhibition, most hits filed as inhibitors; 200,000 compounds, 0.43% hits; active = well fitted curve in the direction sought with a large enough effect; inconclusive = small, poorly fitted or top-dose-only effect, or another doubt; inactive = no such curve, though single readings can be large; an effect the other way counts as inactive or inconclusive;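 note: plate controls were neutral wells for no effect and buffer without enzyme for full effect; nearly all actives have a fitted effect of over 40% in size; top concentration of the series not given in the record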
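Read-out: AMC fluorescence (360 nm excitation, 450 nm emission), four reads over 2 min, first-to-third difference used. Conditions: cruzain 1.5 nM, Z-FR-AMC 2 uM, pH 5.5 acetate, 5 mM DTT, 0.01% Triton X-100.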
RE007 growth inh = less growth of the S. pombe RE007 Vpr strain | 360,000 compounds, 0.21% hits | Potency, µM (series often up to 92.2 µM), for the others: top-dose activity change, negative = less growth | S. pombe RE007 Vpr strain, BacTiter-Glo ATP luminescence, 24 h; control for the full effect not named in the record | AID 651644; active = well fitted falling curve with a large enough effect; inconclusive = small, poorly fitted or top-dose-only effect; inactive = no such curve, though single readings can be large or run the other way;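 note: % is set by controls: 0 for no effect and ±100 for the full control effect; nearly all actives have a fitted effect of over 50% in size; the assay follows cell death caused by Vpr and the record does not say whether a fall means rescue or toxicity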
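Fission yeast strain RE007, carrying one chromosomally integrated HIV-1 vpr copy, was seeded at OD 0.01 in PMG+AL medium with 23 nL pinned compound. After 24 h at 30 °C and 99% humidity, viability was read by BacTiter-Glo luminescence.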
NS1 inh = inhibitors of influenza NS1 protein function; S. cerevisiae slowed by influenza A NS1, growth recovery by OD600; Potency, µM (titrated, usually from 46.1 µM), without a hit: at the highest dose activity, positive = more growth; 270,000 compounds, 0.4% hits; note: actives are rising curves; nearly all actives have a fitted effect of over 50% in size
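Growth recovery, yeast-based: influenza A NS1 expressed in S. cerevisiae causes slow growth, and suppressors are detected by OD600. The parent strain without NS1 is used as positive control.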
SARS PLP yeast = inhibitors of SARS-CoV papain-like protease in yeast; Potency, µM (doses to about 32.9 µM), for the others: top-dose activity, positive = growth rescue; 330,000 compounds, 0.19% hits; S. cerevisiae expressing SARS-CoV PLpro, growth rescue; control for the full effect not named in the record; AID 485353; note: 0% is about no effect; nearly all actives have a fitted effect of over 55% in size; growth read by luminescence after 48 h
MARV entry inh = Marburg virus entry inhibition. Marburg virus pseudotyped entry inhibition, cell reporter; control for the full effect not named in the record; about a third of the inactives were read at about 46 µM. Potency, µM (series often up to 37.8 µM), for the others: at the highest dose activity change, negative = inhibition, hits mostly inhibitors. 300,000 compounds, 1.8% hits; active = well fitted inhibition curve with a large enough effect; inconclusive = small, poorly fitted or top-dose-only effect, or effect the other way; inactive = flat fitted curve, though single readings scatter; tested in HEK293 cells; about a fifth of its hits are not listed in these tables; note: % is set by controls: 0 for no effect and ±100 for the full control effect; luciferase read-out
LASV entry inh = inhibitors of Lassa virus binding or cell entry; Lassa virus pseudotype entry inhibition, cell reporter; control for the full effect not named in the record; Potency, µM (titrated, usually from 37.9 µM), inactives show top-dose activity change, negative = inhibition, actives largely listed as inhibitors; 300,000 compounds, 1.2% hits; active means well fitted inhibition curve with a large enough effect; inconclusive means small, poorly fitted or top-dose-only effect, or effect the other way; inactive means flat fitted curve, though single readings scatter; tested in HEK293 cells; note: % is set by controls: 0 for no effect and ±100 for the full control effect; nearly all actives have a fitted effect of over 50% in size; luciferase read-out
* marks the source's active call; other numbers are inactive results; ? = inconclusive; · = not tested or not shown; [ ] = another dose, or the depositor's remark. Unless noted, calls come from the whole dose curve; as a rule, active means well fitted rising curve with a large enough effect; inconclusive means small, poorly fitted or top-dose-only effect; inactive means no such curve, though single readings can be large or run the other way. Potency is the fitted concentration of half-maximal effect.

SMILES	Cruzain noTriton	2A StopGo	Cruzain Triton	RE007 growth inh	NS1 inh	SARS PLP yeast	MARV entry inh	LASV entry inh
O=P(NC1CCCCC1)(Oc1ccccc1)Oc1ccccc1	·	4%	·	13%	·	·	?	?
O=C(c1ccccc1-c1nc(-c2ccccc2Cl)no1)N1CCOCC1	·	-3%	·	0%	-4%	1%	-19%[46.1 µM]	26%[46.1 µM]
CCOc1ccccc1NC(=O)Cn1c(=O)n(CCCC(=O)NCCOC)c(=O)c2cc(OC)c(OC)cc21	-15%	-6%	0.9%	·	·	·	5%[46.1 µM]	-13%[46.1 µM]
O=C(Cn1c2ccccc2c(=O)c2ccccc21)N/N=C/c1cc([N+](=O)[O-])ccc1N1CCCCC1	10µM*	-26%	0.1%	-14%	6%	-5%	?	18%
C=CCn1c(N)c(C(=O)OCC)sc1=S	0%	1%	6.4%	4%	-56%	-15%	12%	-4%
O=C(Cc1ccc(Br)cc1)NC1CCCCC1	4%	50%[activator]	-5.6%	-9%	-10%	-1%	14%	1%
Cc1ccc(CNC(=O)CCCCn2c(=O)c3ccccc3n(Cc3c(C)cc(C)cc3C)c2=O)cc1	7%	-21%	1.5%	·	·	·	9%[46.1 µM]	13%[46.1 µM]
Cc1sc2nc(-c3cccnc3)[nH]c(=O)c2c1-c1ccccc1	·	-19%	·	-8%	·	-3%	-31%[46.1 µM]	3%[46.1 µM]
O=C(CCn1nc(-c2ccc(Cl)cc2)ccc1=O)N1CCN(c2ccccn2)CC1	19%	-25%	0.4%	-17%	-11%	-2%	2%	0%
CCOC(=O)C(CC)Sc1ncnc2sc3c(c12)CCCC3 (centres undefined)	-3%	-11%	-7.6%	·	·	·	-6%[46.1 µM]	-2%[46.1 µM]
NS(=O)(=O)c1ccc(NC(=O)c2cc(-c3ccccc3O)n[nH]2)cc1	·	9%	·	1%	12%	0%	14%	-2%
COc1ccc(N(Cc2cc3ccccc3[nH]c2=O)S(=O)(=O)c2ccc(C)cc2)cc1	·	-16%	·	-1%	10%	4%	·	·
CCCN1CCN(CCCNC(=S)Nc2ccc3nc(N4CCN(CC)CC4)cc(C)c3c2)CC1	·	3%	·	5%	-5%	-2%	·	·
Cc1ccc(Oc2ncccc2/C=N/OCc2ccc(Cl)c(Cl)c2)cc1	?	6%	6.1%	-11%	1%	2%	?	-9%
COc1ccccc1N(CC(=O)Nc1ccc2c(c1)OCO2)S(=O)(=O)c1ccc(C)cc1	-10%	66%[activator]	-4.4%	·	·	·	-5%[46.1 µM]	-13%[46.1 µM]
O=C(O)c1cnn(-c2nc(-c3ccc(Br)cc3)cs2)c1C(F)(F)F	·	32%[activator]	·	-10%	-73%	-5%	·	·
O=C(c1ccc2c3c(cccc13)CC2)C1CCCN(Cc2ccncc2)C1 (centres undefined)	·	?	·	-6%	-3%	-1%	·	·
COc1ccccc1C1=NS(=O)(=O)N(C)C(C(=O)Nc2cc(OC)c(OC)c(OC)c2)=C1	?	-1%	-4.7%	·	·	·	-4%[46.1 µM]	4%[46.1 µM]
Cn1cnc2cc(NCc3ccccc3O)ccc21	·	65%[activator]	·	3%	1%	-1%	·	·
Cc1ccc(Oc2cc(C)nc(-c3ccccc3O)n2)cc1	-15%	15%	-3.1%	14%	-12%	-7%	25%	?
CCN(CC)S(=O)(=O)c1cccc(C(=O)NC(C)C(c2cccs2)N2CCCC2)c1 (centres undefined)	·	12%	·	-1%	-4%	1%	·	·
CCc1ccc(OC(=O)c2sc3ncn(Cc4cccc(F)c4)c(=O)c3c2C)cc1	-5%	0%	2.9%	·	·	·	·	4%[46.1 µM]
O=C1c2ccccc2C(=O)N1CCCN1C(=O)c2ccccc2C1=O	·	35%[activator]	·	-20%	·	·	7%[46.1 µM]	3%[46.1 µM]
O=C(O)c1cn(-c2ccccc2)nc1-c1cccnc1	1%	-6%	6.2%	14%	?	4%	6%	12%
COc1ccc(C)cc1Nc1nc(-c2cccc(Cl)c2)c2c(n1)-c1ccccc1OC2	4%	3%	-4.3%	·	·	·	-7%[46.1 µM]	2%[46.1 µM]
CCC(CC)C(=O)N1CC(=O)Nc2ccc(F)cc2C1c1ccccc1 (centres undefined)	·	-15%	·	15%	6%	8%	·	·
COC(=O)c1ccccc1NC(=O)CN(c1ccc(Cl)cc1)S(=O)(=O)c1ccc(OC)cc1	6%	-3%	-1.9%	·	·	·	18%[46.1 µM]	3%[46.1 µM]
O=C(CN1CCCCC1)Nc1scc2c1c(=O)oc1ccccc12	·	23%	·	-9%	0%	-1%	·	·
CCC(Oc1ccc(C)c(C)c1)C(=O)O (centres undefined)	5%	6%	0.6%	-14%	16%	4%	16%	-4%
COc1cccc(/C=C/C(=O)OCC(=O)NCc2ccco2)c1OC	6%	-2%	-3.7%	-19%	-5%	-13%	?	5%[46.1 µM]
COc1ccc(NC(=O)N2CCc3cc(OC)c(OC)cc3C2)cc1	·	-20%	·	-5%	-13%	5%	?	?
N#CCCCCn1ccc(NC(=O)c2ccc(Cl)cc2O)n1	·	9%	·	-9%	·	·	-17%	-15%
CCC(Cc1ccccc1)NS(=O)(=O)c1ccc2c(c1)NC(=O)CS2 (centres undefined)	·	-1%	·	6%	5%	3%	·	·
C=CCN(C(=O)c1csnn1)C(C(=O)NC1CCCC1)c1ccc(Cl)cc1 (centres undefined)	·	-3%	·	-1%	-5%	-1%	14%[46.1 µM]	?
N/C(=N\OC(=O)Cc1ccccc1[N+](=O)[O-])c1ccc(Br)cc1	·	16%	·	-17%	-1%	-4%	10%[46.1 µM]	15%
COC(=O)c1cc(C(=O)N2CCN(c3cccc(C)c3C)CC2)cc([N+](=O)[O-])c1	·	-29%	·	3%	3%	-1%	4.5µM*	-23%
Cc1ccc(CN2CC(C(=O)N3CC=C(c4ccccc4)CC3)CC2=O)cc1 (centres undefined)	·	-8%	·	17%	-10%	-1%	-23%	?
O=C(CCC(=O)N1CCCc2ccccc21)N1CCN(S(=O)(=O)c2ccccc2)CC1	1%	-21%	1.1%	17%	-7%	-4%	-4%	-3%
COc1ccccc1NC(=O)CN1CCN(c2ccc(Cl)cc2)CC1	-6%	?	-5.5%	-3%	-45%	-9%	?	-24%
CC(=O)Oc1ccccc1N(C(C)=O)S(=O)(=O)c1cccc([N+](=O)[O-])c1	·	-15%	·	-14%	3%	0%	11%[46.1 µM]	-20%
Cc1c(C(=O)OCCOC(C)C)[nH]c2c1C(=O)CC(C)(C)C2	4%	7%	-2.9%	2%	-18%	10%	·	·
Cc1ccc(-c2nc3ccccc3o2)cc1NC(=O)c1ccc2c(c1)OCO2	?	91%[activator]	7.7%	0%	-4%	-5%	25%	29%
COc1cccc2sc3ccc(C#Cc4ccc(N)cc4)cc3c(=O)c12	·	0%	·	-4%	-13%	-1%	·	·
O=C(Nc1cc(-c2ccc(F)c(F)c2)no1)c1ccccc1F	25µM*	29%	-3.1%	·	·	·	?	17%[46.1 µM]
CN(Cc1ccccc1)C(=O)CSc1nc(-c2ccc(F)cc2)cc(C(F)(F)F)n1	-2%	-28%	-2.1%	·	·	·	?	-12%[46.1 µM]
CCNc1nc(NC(C)C)nc(N(n2cnnc2)S(=O)(=O)c2ccc(C)cc2)n1	-5%	4%	-4.7%	-3%	28%	13%	1%	5%
N#Cc1ccc2c(c1)nc1ccccn12	·	22%	·	7%	·	-4%	12%[46.1 µM]	-2%
CN1C(=O)C(C)(C)c2cc(S(=O)(=O)N3CCCC3C(=O)NCc3ccc(F)cc3)ccc21 (centres undefined)	·	0%	·	-12%	-3%	6%	·	·
Cc1cccc(NC(=O)CSc2cn[nH]n2)c1	·	4%	·	7%	28%	17%	?	-11%[46.1 µM]
Cc1ccc2nc3c(c(Nc4ccccc4)c2c1)CCC3	·	?	·	0%	-33%	-1%	?	?
COc1ccc(COCC(O)CN2CCCCC2)cc1OC (centres undefined)	·	-8%	·	-9%	0%	?	·	·
COc1ccc(C(=O)c2c(C(F)(F)F)oc3c2C(=O)c2ccccc2C3=O)cc1OC	1%	10µM*	-5.6%	?	-3%	-29%	2.8µM*	2.5µM*
CCOC(=O)N1C2C=CC(C2)N1C(=O)OCC	·	-1%	·	1%	·	·	?	-5%
Cn1c(=O)c2c(ncn2CC(=O)N2CCN(c3ccccc3F)CC2)n(C)c1=O	-6%	·	2.4%	-8%	12%	12%	0%	4%
O=C(CCC1CCCC1)NCc1ccccn1	10%	33%[activator]	6.6%	-6%	5%	-1%	2%	13%
O=C(OCC(=O)N1CCCc2ccccc21)c1ccc(C(F)(F)F)cc1	·	-23%	·	-8%	·	-5%	11%[46.1 µM]	2%
CCOC(=O)c1ccc(N/C(=N/S(=O)(=O)c2ccccc2)c2ccccc2)cc1	11%	22%	-6.1%	-9%	-11%	-3%	?	?
Cc1cc(NC(=O)CCn2c(=O)c3cccn3c3cccnc32)ccc1Br	1%	-10%	2.7%	·	·	·	·	24%[46.1 µM]
CCOc1ccc2nc(SCC(=O)Nc3cc4c(cc3C(C)=O)OCO4)[nH]c2c1	-2%	-22%	-6.9%	-10%	7%	6%	-10%	-7%
CCCn1cnc2c(SCc3ccccc3Cl)nc(N)nc21	·	6%	·	13%	·	·	7.1µM*	11µM*
Further compounds
SMILES	Cruzain noTriton	2A StopGo	Cruzain Triton	RE007 growth inh	NS1 inh	SARS PLP yeast	MARV entry inh	LASV entry inh
CCOC(=O)C(C)/C(C)=N/NC(=O)c1cc2ccccc2cc1O (centres undefined)	-5%	-14%	3.2%	15%	-5%	?	?	?
Cc1ccc(NC(=O)c2ccc(C)c(S(=O)(=O)N3CCCCC3)c2)nc1	·	-24%	·	5%	·	0%	?	-10%
CCOC(=O)c1cnc(-n2nc(C)cc2C)nc1Nc1ccccc1OC	8%	·	0.9%	·	1%	-7%	·	·
COCCNc1nc2c(S(=O)(=O)c3ccc(C)c(C)c3)nnn2c2ccc(Cl)cc12	3%	13%	-1.9%	·	·	·	0%[46.1 µM]	·
Cc1ccccc1NC(=O)CCSc1nnnn1-c1ccccc1	8%	-28%	-0.1%	-6%	-16%	-11%	?	15%

Source: PubChem
